2A firefly – Primary qHTS Assay for Foot and Mouth Disease Virus Antivirals against NCGC Sytravon and CBC Compound Libraries: Firefly Luciferase Signal; HEK cells with a luciferase reporter of 2A StopGo recoding; Potency, µM (titrated, usually from 57.5 µM), for inactives: at the top dose signal change, negative = less light; 120,000 tested, 0.23% active; AID 1745856, 2022; active = well fitted falling curve with a large enough effect; inconclusive = small, poorly fitted or top-dose-only effect; inactive = no such curve, though single readings can be large or run the other way; note: nearly all actives have a fitted effect of over 60% in size; overnight with compound
2A Renilla – Primary qHTS Assay for Foot and Mouth Disease Virus Antivirals against NCGC Sytravon and CBC Compound Libraries: Renilla Luciferase Signal. HEK cells with a luciferase reporter of 2A StopGo recoding. Potency, µM (highest dose often 57.5 µM), without a hit: top-dose signal change, negative = less light. 120,000 tested, 0.32% active. AID 1745857, 2022; active means well fitted falling curve with a large enough effect; inconclusive means small, poorly fitted or top-dose-only effect; inactive means no such curve, though single readings can be large or run the other way; note: nearly all actives have a fitted effect of over 55% in size; overnight with compound
* hit, by the source's call; ? = inconclusive; & = joins results of further samples; [ ] = another dose, or the depositor's remark. % is set by controls: 0 for no effect and ±100 for the full control effect; potency is the fitted concentration of half-maximal effect.

Start of the listing, in advance, 3 compounds:
Every second line gives: 2A firefly | 2A Renilla
> Cc1cc(Nc2ccc(F)cc2)nc(-n2nc(C)cc2C)n1
→ -31% | -6%
> COc1ccccc1CCNC(=O)C1CCN(c2nc(Cl)nc3nc[nH]c23)CC1
→ 6% | 3%
> COc1ccc(-c2cc(C(F)(F)F)nc(SCCC(=O)Nc3ccc(OC)c(OC)c3)n2)cc1
→ -11% | 0%

This part in full, previewed entries included:
Every second line gives: 2A firefly | 2A Renilla
> Cc1cc(Nc2ccc(F)cc2)nc(-n2nc(C)cc2C)n1
→ -31% | -6%
> COc1ccccc1CCNC(=O)C1CCN(c2nc(Cl)nc3nc[nH]c23)CC1
→ 6% | 3%
> COc1ccc(-c2cc(C(F)(F)F)nc(SCCC(=O)Nc3ccc(OC)c(OC)c3)n2)cc1
→ -11% | 0%
> COCCCn1c(SCC(=O)c2ccc(OC)cc2)nnc1-c1ccc(Cl)cc1
→ 0% | 9%
> O=C(O)c1cccc(/C=N/O)c1O
→ 22% | 12%
> COc1cc(NC(=O)C(=O)NCCc2ccccc2)ccc1N1CCCCS1(=O)=O
→ -6% | -11%
> CCCN1CCC(N(C)C(=O)c2ccc(N(C)C)c(F)c2)CC1
→ 5% | 4%
> CCCCCCc1cc(C=O)c(O)cc1O
→ -8% | 5%
> COc1ccc(CCNC(=O)CN(c2ccc(Cl)c(C(F)(F)F)c2)S(C)(=O)=O)cc1OC
→ ? | -30%
> CC[C@@H](CO)NC(=O)[C@@H]1C=C2c3cccc4[nH]cc(c34)C[C@H]2N(C)C1
→ 7%[11.5 µM] | -18%
> CCC(C)(C)C1CCc2c(sc(NC(=O)/C=C/c3ccccc3)c2C#N)C1 (centres undefined)
→ -5% | -10%
> Cc1ccc(C)c(C(=O)COC(=O)c2ccc3ccccc3n2)c1
→ -1% | -15%
> CC1CC(=O)N(CC(=O)Nc2ccc(F)cc2F)c2ccccc2S1 (centres undefined)
→ -3% | 2%
> N#C/C(=C/c1ccc(-c2ccccc2)cc1)C(=O)NCCc1ccccc1
→ 1% | 9%
> O=C(CC1CCCO1)NC(c1ccccc1)C1CCCCC1 (centres undefined)
→ 29% | 20%
> CC1=C(C(=O)N2CCOCC2)C(c2ccc(F)c(Br)c2)C2=C(CCCC2=O)N1 (centres undefined)
→ -6% | -2%
> COc1cc(/C=C/C(=O)c2nc3ccccc3s2)cc(OC)c1
→ 112%[activator] | 9%
> Cc1cccc(NC(=O)/C(C#N)=C/c2ccc(C)o2)c1
→ 225%[activator] | 9%
> COc1ccc(C2CCCN2Cc2cccc(C)c2)cc1 (centres undefined)
→ -18% | -19%
> CC(=O)c1ccc(NC(=O)CSC2=Nc3ccccc3N=C(c3ccc(F)cc3)C2)cc1
→ 11% | -3%

Quoted from the listing:
Under 2A firefly, Cc1cc(Nc2ccc(F)cc2)nc(-n2nc(C)cc2C)n1 is entered as -31%
Under 2A firefly, O=C(O)c1cccc(/C=N/O)c1O is entered as 22%
Under 2A Renilla, Cc1cccc(NC(=O)/C(C#N)=C/c2ccc(C)o2)c1 is entered as 9%

Other results:
Every second line gives: 2A firefly | 2A Renilla
> CCOc1ccc(CCNC(=O)c2cc3sc(CC)cc3n2C)cc1OCC
→ -21% | -5%
> COC(=O)c1c(C)oc2c1cc(NS(=O)(=O)c1c(C)cc(C)cc1C)c1ccccc12
→ 6% | -8%
> Brc1ccccc1NC1C2CC3CC(C2)CC1C3 (centres undefined)
→ 10% | 9%
> Cc1cccc(-n2nnnc2C2(NC(C)C)CCCCC2)c1
→ 17% | 7%
> CCCCc1nn2c(=O)cc(COC(=O)c3cccc(NC(=O)COc4ccccc4)c3)nc2s1
→ 18% | -6%
> CCCN1CCS(=O)(=O)N(Cc2cn(CC(=O)OCC)nn2)C(C(=O)OC)C1 (centres undefined)
→ 3% | 10%
> COc1ccc(C(=O)/C(=C/c2ccc(C)o2)c2nc3ccccc3o2)cc1OC
→ 0% | 25%
> CCOC(=O)c1ccccc1NC(=O)CSc1ccc(-c2sc(C)nc2C)nn1
→ -12% | 13%
> CC(Oc1ccccc1C(C)C)C(=O)N1CCN(c2ncccn2)CC1 (centres undefined)
→ 16% | 18%
> O=C(CSc1nc2ccccc2nc1N1CCCCC1)Nc1cccc(Br)c1
→ -5% | -4%
> N#Cc1ccc(CSCc2nc(N)nc(Nc3ccccc3)n2)cc1
→ 28% | 1%
> CCCCCCn1nc(C(=O)N(C)Cc2cccc(OC)c2)c2ccccc2c1=O
→ ? | ?
> COc1ccc(NC(=O)Cn2nnc3sc4c(c3c2=O)CCC(C)C4)c(OC)c1 (centres undefined)
→ -16% | -15%
> Cc1c(Cl)cccc1-n1ncc(C(=O)Nc2ccc3c(c2)OCCO3)c1C1CCN(C(=O)OC(C)(C)C)CC1
→ -5% | 23%
> Cc1cc(=O)n2nc(N3CCC(C(=O)Nc4ccc(C)c(Cl)c4)CC3)sc2n1
→ -12% | -14%
> Cc1oc(-c2ccccc2)nc1CC(=O)N(C)CC(=O)Nc1ccc(Cl)cc1
→ -3% | 3%
> Cc1nc2ccn(Cc3cccnc3)c(=O)c2cc1C(=O)N1CCN(c2ccc(F)cc2)CC1
→ -8% | -19%
> COc1ccccc1CNC(=O)CSc1nnc(C)n1C1CCCCC1
→ 4% | -9%
> CCNC(=O)CSc1nc(C2CC2)nc2ccccc12
→ 6% | -16%
> CCc1nc2ccccc2c(C(=O)OCC(=O)NC2CCCCC2)c1C
→ -6% | 24%
> Cc1ccc(-c2c3c(nc4sc5c(c24)CCC5)-c2cc(F)ccc2S(=O)(=O)C3)cc1
→ 0% | 11%[1.06 µM]
> O=C(N/N=C/c1ccsc1)c1cccs1
→ 2% | 17%
> C=CCNC(=O)/C=C/c1ccc(OC)cc1
→ 180%[activator] | 5%
> Cc1ccc(NC(=O)N2CCC(CN3CCCC3)CC2)c(C)c1
→ -26% | -15%
> CC(=O)c1ccc(N2CCN(C(=O)c3cc4cc5cc(C)ccc5nc4s3)CC2)cc1
→ -13% | -6%
> Cc1ccc2c(CN(C)CCOc3cccc(Cl)c3)cc(=O)oc2c1
→ 0% | 10%
> CCNC(=O)NC(=O)C(C)OC(=O)c1cc(C)nc2ccccc12 (centres undefined)
→ 0% | 23%
> Cc1ccc(NC(=O)Cc2n[nH]c(=O)c3ccccc23)c(F)c1
→ 12% | -8%
> Cc1cc(C)c(C(=O)C(C)OC(=O)Cc2n[nH]c(=O)c3ccccc23)cc1C (centres undefined)
→ 2% | 4%
> CC1CN(C(=O)N2CCC(C(=O)NCCCc3ccccc3)CC2)c2cc(Cl)ccc2O1 (centres undefined)
→ ? | ?
> COc1cc(NC(=O)C(CC(C)C)N2Cc3ccccc3C2=O)cc(OC)c1 (centres undefined)
→ -2% | 6%
> Cc1cn(C)c(CC(=O)N2CCN(c3ccccc3F)CC2)c1C(=O)O
→ -18% | -3%
> CC(C)(C)c1ccccc1NC(=O)COC(=O)c1ccc2ccccc2n1
→ 3% | -1%
> Cc1ccc(-c2cc(C(F)(F)F)nn2-c2ccc(S(N)(=O)=O)cc2)cc1
→ -10% | -7%
> O=C(NCCCc1nc2ccccc2n1Cc1ccc(Cl)cc1)c1ccco1
→ -4% | 0%
> CCC(C)Cc1c(C)sc2nc(CNc3ccc(NC(C)=O)c(Cl)c3)[nH]c(=O)c12 (centres undefined)
→ 15% | 0%
> Cc1ccc(N=Cc2c(Cl)cccc2Cl)c(C)c1
→ 1% | 0%
> Cc1cccc(Cc2c(C)nc3nc(SCC(=O)NC4CCCCC4)nn3c2C)c1
→ 3% | 8%
> COc1ccc(-c2cc(Nc3cccc(Cl)c3)nc(C)n2)cc1
→ 105%[activator] | -2%
> O=C1CSc2ccc(C(=O)Nc3cccc(C(=O)NC4CC4)c3)cc2N1
→ 0% | -13%[1.06 µM]

(listing goes on)
| SMILES | 2A firefly | 2A Renilla |
| --- | --- | --- |
| CC(NC(=O)CCc1ncc(-c2ccc(F)cc2)o1)c1ccc2c(c1)NC(=O)CO2 (centres undefined) | 7% | -11% |
| CC(C1CC1)N(C)C(=O)COc1ccc(C#N)cc1 (centres undefined) | 9% | 5% |
| CCOc1ccc(CN(CCOC)Cc2cc(=O)n3cccc(C)c3n2)cc1 | ? | ? |
| Cc1ccc(S(=O)(=O)N2CCC(C(=O)Nc3nnc(-c4ccc(Cl)cc4)o3)CC2)c(C)c1 | 87%[activator] | 11% |
| O=C1CCCC2=C1C(c1c(Cl)cccc1Cl)n1nnnc1N2 (centres undefined) | -3% | -4% |
| COc1cccc(NC(=O)C2CCN(S(=O)(=O)c3c(C)noc3C)CC2)c1 | 5% | 1% |
| Cc1ccc2nc(COc3ccc(F)cc3)[nH]c2c1 | 207%[activator] | 9% |
| CCNC(=O)NC(=O)C(C)N(C)Cc1ccc(F)cc1 (centres undefined) | -5% | -7% |
| C=CCN1CCCC(C(=O)OCC)C1 (centres undefined) | -4% | -6% |
| CSc1ccc(/C=C(/C#N)C(=O)Nc2cccc(Cl)c2C)cc1 | 26% | -4%[1.06 µM] |
| CC1(C)CC(=O)C2=C(C1)Nc1cc3c(cc1C2c1ccc(OCC(=O)O)cc1)OCO3 (centres undefined) | 7% | 7% |
| CC1(C)CC(=O)C2=C(C1)NC(=O)CC2c1ccc(Cl)cc1 (centres undefined) | 11% | -8% |
| Cc1ccc2c(c1)N(C(=O)CCC(=O)Nc1ccccc1Cl)CC(C)O2 (centres undefined) | 4% | 16% |
| COCCNC(=O)C(=O)NCC(c1cccnc1)N1CCN(c2ccccc2OC)CC1 (centres undefined) | -1% | -12% |
| COc1ccc(C(=O)N2N=C(c3ccsc3)CC2c2ccc3nccnc3c2)cc1 (centres undefined) | 47%[activator] | 10% |
| Cc1ccc(C(=O)N2CCN(c3cccc(Cl)c3)CC2)cc1-n1c(C)nc2cccnc21 | ? | ? |
| CC(N)CCCC(C)(C)O (centres undefined) | 4%[11.5 µM] | -4% |
| CCCCOC(=O)C(C)Oc1ccc2c(=O)c(-c3ccccc3)coc2c1 (centres undefined) | 0% | 9% |
| Cc1ccc(-n2nc(C)c3c(C(=O)NCCc4ccc(S(N)(=O)=O)cc4)cc(C)nc32)cc1 | -5% | 2% |
| c1ccc2c(NC34CC5CC(CC(C5)C3)C4)nc(N3CCCCC3)nc2c1 | 11% | -4% |
| CCCNC(=O)CNC(=O)CCc1ncc(-c2ccc(C)cc2)o1 | 23% | -9% |
| CCC1CCCCN1CC(=O)Nc1cc(C)c2c(=O)oc3ccccc3c2n1 (centres undefined) | -20% | -8% |
| CCCn1c(SCc2nc(-c3ccc(OC)cc3OC)no2)nnc1-c1ccc(Cl)cc1 | 12% | 64%[activator] |
| Cc1c(C(=O)Nc2ccc3oc(-c4cccc(F)c4)nc3c2)cccc1[N+](=O)[O-] | 0% | -25% |
| CCCOc1ccc(-c2nc(SCC(=O)c3ccc(Cl)cc3)n[nH]2)cc1 | 131%[activator] | 8% |
| COc1ccc(NC(=O)C(=O)NCC(c2ccc3c(c2)OCO3)N2CCN(C)CC2)cc1 (centres undefined) | 14%&-21% | -1%&-10% |
| O=C(OCc1nc2ccccc2o1)c1ccc(Cl)c(S(=O)(=O)N2CCCCCC2)c1 | 7% | 3% |
| COc1ccc(CNC(=O)C(=O)Nc2cc(Cl)ccc2OC)cc1 | -9% | -2% |
| Cc1ccc(Cl)cc1-n1ncc2c(=O)n(CC(N)=O)cnc21 | 7% | 5% |
| COc1ccccc1-c1nc(C#N)c(N2CCN(C(=O)c3cccs3)CC2)o1 | 6% | 4% |
| CC(C)c1ccc(C2C3=C(COC3=O)Nc3c2c(=O)n(C)c(=O)n3C)cc1 (centres undefined) | 52%[activator] | 90%[activator] |
| O=C(Nc1nnc(S(=O)(=O)N2CCCc3ccccc32)s1)c1cccc(Cl)c1 | 0% | 3% |
| Cc1ccc2c(Sc3ccc(Cl)cc3)c(C(=O)N3CCC(C)CC3)[nH]c2c1 | 4% | 340%[activator] |
| Cc1ccc(CN(CC(=O)NC(C)(C#N)C2CC2)C(C)C)s1 (centres undefined) | -2% | 7% |
| CCCC1NC(=O)N(Cc2ncc(-c3ccc(F)cc3)o2)C1=O (centres undefined) | 32% | -7% |
| O=C(COc1ccc(Cl)cc1)NCCc1csc(-c2ccc(F)cc2)n1 | -2% | 17% |
| CCCCn1cc(S(=O)(=O)c2ccc(C)c(C)c2)c(=O)c2cc(F)c(N3CCN(C)CC3)cc21 | -1% | 33%[activator] |
| CN(C)C(=O)c1ccc(Cl)cc1 | 6% | 0% |
| O=S(=O)(NCC1(c2ccccc2)CC1)c1ccc(Cl)cc1 | 0% | 86%[activator] |
| Cc1cc(C)cc(NC(=O)CSc2nnc(CNC(=O)c3c(F)cccc3Cl)o2)c1 | 10% | 4% |
| Cc1noc(C)c1CCC(=O)N1CCN(S(=O)(=O)c2ccccc2F)CC1 | 3% | 14% |
| COc1cccc(NC(=O)C(C#N)C(=O)Cc2ccccc2C)c1 (centres undefined) | 22% | 114%[activator] |
| CCOC(=O)c1ccc(NC(=O)c2nc(SCc3ccccc3F)ncc2Cl)cc1 | -8% | -8% |
| COC(=O)C(OC(=O)c1[nH]c(C)c(C(C)=O)c1C)c1ccccc1Cl (centres undefined) | 15% | -13%[1.06 µM] |
| CCOC(=O)c1ccc(OCc2ccccc2C#N)cc1 | 0% | 0% |
| Cc1nc(C#N)c(N2CCN(C(=O)CN3CCCCC3)CC2)o1 | 5% | -11% |
| Cn1c(SCc2cccc(Cl)c2)nc(=O)c2c1NC(=O)CC2c1ccc(OCC(N)=O)cc1 (centres undefined) | -5% | -6% |
| CC(=O)N1CCCc2ccc(NS(=O)(=O)c3ccc(C)c(C)c3)cc21 | 39%[activator] | -1% |
| O=S(=O)(c1ccc(F)c(Cl)c1)N1CCN(C/C=C/c2ccccc2)CC1 | 4% | 102%[activator] |
| CC(C)C(N)c1ccccc1 (centres undefined) | 19% | 1% |

The list is partial (hit frequency here may not be typical).
